GALR2 ag = GALR2 (human) receptor agonism; GALR2-expressing cells, agonist activation read-out; 0.48% of 140,000 active; activation, %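 (tested at 5 µM)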;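 active = above mean plus 3 SD of all compounds, about 5% in these data, not always enough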;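 also: 0% = vehicle buffer wells and 100% = reference agonist at full effect; tested in CHO reporter cells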
Target sequence (O43603 whole entry, looked up): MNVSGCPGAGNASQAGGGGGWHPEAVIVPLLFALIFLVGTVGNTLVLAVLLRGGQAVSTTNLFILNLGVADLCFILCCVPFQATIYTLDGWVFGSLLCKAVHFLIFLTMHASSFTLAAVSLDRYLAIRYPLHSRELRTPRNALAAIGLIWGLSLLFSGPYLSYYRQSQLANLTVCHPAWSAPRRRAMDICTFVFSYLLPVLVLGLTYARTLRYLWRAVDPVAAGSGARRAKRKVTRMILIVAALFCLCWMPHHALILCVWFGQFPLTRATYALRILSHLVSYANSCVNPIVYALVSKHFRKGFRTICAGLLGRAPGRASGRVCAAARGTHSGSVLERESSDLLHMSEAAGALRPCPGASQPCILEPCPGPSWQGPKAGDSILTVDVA
Insulin prom inh = TRM-6 insulin promoter activity inhibition | AID 1273 | 0.9% of 130,000 active | TRM-6 cells (human fetal islet line), insulin promoter-eGFP reporter, imaging; reporter expression induced with tamoxifen | inhibition, % at 2 µM;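 active = inhibition above the mean plus 3 SD, with well images judged a real hit on visual review, cut at about 60% in these data, passing the limit was not always enough; inconclusive = inhibition over the cutoff but images rejected on review; inactive = inhibition not above the cutoff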
HSV replic up = increases HSV replication in cells | HSV replication augmentation in cells, fold increase | AID 1956 | 0.005% of 220,000 active | maximum fold increase;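 active = peak rise of 1.5-fold or more in the series; inconclusive = self-fluorescent or not available for retest; tested in PC3 cells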;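 also: first round at 10 µM; read as green reporter fluorescence; hits show the peak of a series up to 25 µM; 1 = signal of infected wells without compound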
PKD1 inh = inhibitors of human PKD1 kinase; Q15139; PKD1 kinase fluorescence polarization assay; inhibition, %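 (about 10 µM by stock and volumes)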; 0.056% of 200,000 active; AID 797;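 active = inhibition of 50% or more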;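 also: controls were vehicle for no effect and a reference inhibitor for full effect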
RGS16-Gao HTS = regulators of human RGS16-Galphao interaction. bead-based flow cytometry RGS16-Galphao binding, fluorescence; actives lie on both sides. O15492+P09471. binding response (% of control), % at 10 µM. AID 1441. 0.38% of 220,000 active;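 active = below 25% or above 175%, edge rows of some plates excepted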;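 also: Galphao activated by GDP with aluminum fluoride before binding; 100% = wells without compound and 0% = beads without RGS; some results beyond the cut were filed as inactive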
Target sequence (O15492 whole entry, looked up): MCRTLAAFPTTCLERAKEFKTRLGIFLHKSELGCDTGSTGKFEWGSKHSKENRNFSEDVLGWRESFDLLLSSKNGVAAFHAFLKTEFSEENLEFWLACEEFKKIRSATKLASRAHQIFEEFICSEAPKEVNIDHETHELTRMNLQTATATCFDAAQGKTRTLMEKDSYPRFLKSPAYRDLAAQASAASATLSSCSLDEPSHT
Target sequence (P09471 whole entry, looked up): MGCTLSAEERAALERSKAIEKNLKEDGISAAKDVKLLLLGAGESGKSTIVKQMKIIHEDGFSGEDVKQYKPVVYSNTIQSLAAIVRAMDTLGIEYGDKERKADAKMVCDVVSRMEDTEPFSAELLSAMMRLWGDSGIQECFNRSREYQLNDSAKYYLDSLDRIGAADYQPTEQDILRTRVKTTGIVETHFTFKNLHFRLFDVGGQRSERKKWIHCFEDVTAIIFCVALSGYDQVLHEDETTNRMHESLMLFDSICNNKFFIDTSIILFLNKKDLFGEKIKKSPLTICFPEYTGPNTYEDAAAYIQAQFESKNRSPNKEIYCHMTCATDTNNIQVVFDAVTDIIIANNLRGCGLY
Insulin prom inh cell count = also measured in Insulin prom inh; calls as there; normalized cell count, %; measured here: cell count, toxicity; reference of the scale not given here;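 cells exposed to compound for 48 h; stained nuclei by imaging scaled within each plate; lower means fewer cells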
HSV replic up primary fold = also measured in HSV replic up; calls as there; fold increase; compound at 10 µM; measured here: primary screen fold increase 10 uM; tested in PC3 cells;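 GFP signal in the first replicate; 1 = infected wells without compound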
* hit, by the source's call; i = inactive; ? = inconclusive; · = no result given; & = joins results of further samples.

SMILES	GALR2 ag	Insulin prom inh	Insulin prom inh cell count	HSV replic up	HSV replic up primary fold	PKD1 inh	RGS16-Gao HTS
CCOc1ccc(N2C(=O)CC(Sc3nc4ccc(OCC)cc4s3)C2=O)cc1 (stereo not given)	-1.5	43	132	i	0.87	6	·
COc1ccccc1C1SCCN1S(C)(=O)=O (stereo not given)	-1.9	·	·	i	0.93	-8	104
CCOC(=O)c1sc(N)c(C(=O)OCC)c1C	·	·	·	i	0.98	·	104
CCOC(=O)c1ccc(NC(=O)CCNC(=O)c2ccc([N+](=O)[O-])cc2)cc1	-1.6	-7	96	i	0.96	-6	103
COCCC(=O)Nc1ccc2c(c1)CN(C(=O)CCOC)CC2	·	·	·	i	1	1	102
O=C(Nc1ccccc1O)/C(=C\c1ccccc1)NC(=O)c1ccccc1	·	-11	84	i	0.97	-4	104
Nc1c(-c2ccccc2Cl)cnn1-c1cccc([N+](=O)[O-])c1	-1.0	-44	112	i	0.97	-6	96
COc1cc(C)nc(NC(=O)COc2ccc(Cl)cc2C)n1	-0.5	9	58	i	0.93	-2	143
CC1OC2(C)OC(=N)C1(C#N)C(C#N)(C#N)C2c1ccccc1 (stereo not given)	0.7	-26	71	?	·	-3	120
COc1ccc(C)cc1NC(=O)NCc1ccccn1	·	-35	112	i	1.1	-2	100
O=C(CCc1nnc(Cc2c[nH]c3ccccc23)o1)NCC1CC12CCCCC2 (stereo not given)	·	·	·	i	1.1	-5	103
COc1ccc(CC2(C)OC(c3ccc([N+](=O)[O-])cc3)=NN2C(C)=O)cc1 (stereo not given)	·	·	·	i	1.2	·	103
Nc1nc(-c2ccccc2)cc(-c2ccccc2O)n1	-1.7	·	·	i	1.1	13	109
CC(C)=CC(=O)OCC(=O)NC(=O)NC(C)(C)C	1.7	59	91	i	0.99	-9	101
CCN(C(=O)CSc1nnc(-c2ccc(F)cc2)c2ccccc12)C1CCS(=O)(=O)C1 (stereo not given)	·	-62	125	i	0.99	7	100
COc1ccc2c3c([nH]c2c1)C1CC2C(CC(O)C(OC)C2CO)CN1CC3 (stereo not given)	·	·	·	i	1.1	·	109
CCOC(=O)c1nc(Nc2ccc(C)cc2)c2ccccc2n1	-0.6	·	·	i	0.93	-1	102
CSc1ccccc1C(=O)OCC(=O)NC1CCS(=O)(=O)C1 (stereo not given)	·	0	122	i	0.99	-2	91
CC(C)(C)c1nnc(NC(=O)Nc2ccc(Cl)cc2)s1	·	·	·	i	1	·	101
O=C(NCCCn1ccnc1)c1cnn2c1NC(c1ccccc1)CC2C(F)(F)F (stereo not given)	-1.4	-200	103	i	0.93	-3	99
CCOc1ccc(NC(=O)COC(=O)c2ncc(Cl)c(Cl)c2Cl)cc1	-1.0	11	105	i	0.96	-16	110
O=C(O)c1cccc(Nc2ncnc3ccc(Br)cc23)c1	·	·	·	i	0.87	·	102
Cc1ccc(-n2[nH]c(C)c(/C=N/NC(=O)c3cccc([N+](=O)[O-])c3)c2=O)cc1C	0.3	·	·	i	0.83	11	103
O=C(COC(=O)CC1CC2CCC1C2)NC(=O)NC1CCCC1 (stereo not given)	·	29	109	i	1.4	3	102
CCN1CCN(C(=S)Nc2ccc(Cl)cc2)CC1	-0.2	57	73	i	0.91	-10	95
(further entries)
SMILES	GALR2 ag	Insulin prom inh	Insulin prom inh cell count	HSV replic up	HSV replic up primary fold	PKD1 inh	RGS16-Gao HTS
O=C(O)CCNC1CCCCC1	·	·	·	i	0.94	·	98
CC(=O)c1ccc(S(=O)(=O)N2CCN(c3ccccc3F)CC2)cc1	·	·	·	i	0.96	0	161
O=C(Nc1ccc(Cl)cc1)N[C@@H]1c2c(ccc3ccccc23)OC[C@@H]1CO	-1.5	·	·	i	1.1	-12	95
COc1ccc2c(c1OC)C(=O)OC2C1c2c(cc3c(c2OC)OCO3)CCN1C (stereo not given)	-0.9&-0.2	-19	138	i	0.87&0.91	-7&-14	94&103
CC(C)(C)n1cnc2cc(NCc3cccs3)ccc21	·	44	56	i	1	3	100
COc1ccc(C(=O)N2CCC(C(=O)c3ccc(F)cc3)CC2)cc1	-2.4	12	119	i	0.76	-9	109
N#Cc1cccc(NC(=S)Nc2ccccc2)c1	-0.2	6	111	i	0.9	0	102
Cc1ccc(/C=N/NC(=O)c2cccc(S(=O)(=O)Nc3ccccc3Cl)c2)s1	-1.9	·	·	i	1	2	108
CCc1cc(C(=O)N2CCCC(CCC(=O)N3CCN(c4ccccn4)CC3)C2)no1 (stereo not given)	·	·	·	i	0.94	-10	111
O=C(Oc1ccccc1-c1nnco1)c1ccc(Cl)cc1	-0.8	-14	108	i	0.94	4	101
CCc1ccc(C(=O)CSc2n[nH]c(-c3ccncc3)n2)cc1	1.1	3	153	i	0.91	-4	80
Cc1[nH]c2ccccc2c1SCC(=O)O	-0.8	12	125	i	1	1	101
CCC(Oc1ccccc1)C(=O)Nc1ccccn1 (stereo not given)	-1.4	-58	79	i	1.1	1	100
Cc1ccc(/C=N/NC(=S)Nc2cccc(S(=O)(=O)N(C)C)c2)o1	·	·	·	i	0.82	·	103
Cc1[nH]n(-c2ccccc2)c(=O)c1/C=C1\C=NN=C1c1ccccc1	·	·	·	i	0.93	·	111
COc1ccc2cc(Br)ccc2c1CC(=O)NC1CC(C)(C)NC(C)(C)C1	-0.7	-11	155	i	0.79	-9	104
COc1ccc(NC(=O)NCCCN2CCc3ccccc3C2)cc1	-1.9	60	128	i	0.92	-8	105
Cc1cc(C(=O)Nc2ccc(S(=O)(=O)N3CCCC3)cc2)no1	·	·	·	i	1	-3	101
CCOC(=O)C1CCN(C(=O)Nc2cccc(Cl)c2)CC1	-2.5	50	151	i	0.92	-3	122
COC(=O)c1ccc(Cl)c(NC(=O)CN(c2ccc(OC)c(OC)c2)S(C)(=O)=O)c1	0.5	-29	141	i	0.99	-8	102
CSc1ccccc1NC(=O)c1cc2ncc(Br)cn2n1	·	·	·	i	1.1	-4	90
CC(=O)Cn1c(N2CCC(Cc3ccccc3)CC2)nc2c1c(=O)[nH]c(=O)n2C	-0.2	·	·	i	0.91	-13	99
Cc1[nH]c2ccccc2c1Cc1nnc(SCc2ccccc2)o1	-2.9	·	·	i	1.4	-3	113
N#Cc1c(NC(=O)CN2C(=O)c3ccccc3C2=O)oc(-c2ccccc2)c1-c1ccccc1	-1.3	-238	64	i	0.92	-1	·
Cc1ccc(S(=O)(=O)Nc2ccc3c(c2)nc2n3CCN(Cc3ccccc3)C2)cc1	-2.8	0	123	i	0.83	-4	83
Going on with the list:
SMILES	GALR2 ag	Insulin prom inh	Insulin prom inh cell count	HSV replic up	HSV replic up primary fold	PKD1 inh	RGS16-Gao HTS
O=C(CSc1ncnc2nc[nH]c12)Nc1ccc(Br)cc1Cl	·	·	·	i	0.95	·	96
CN1CCN(C(=O)/C=C\c2ccc(Cl)cc2)CC1	-0.3	-7	75	i	1	1	103
CCCCNC(=O)c1ccc2c(c1)ncn2C1CCCC1	0.0	·	·	i	0.97	-3	104
COc1ccccc1OCCCN1C(=O)C(=O)c2cccc(C)c21	·	-75	93	i	1.1	-5	98
O=C1Nc2ccc(Cl)cc2[C@@](C#CC2CC2)(C(F)(F)F)O1	·	·	·	i	0.41	·	98
Cc1cc(NC(=O)CCC(=O)N(Cc2ccccc2)C2(C(=O)NC3CCCCC3)CCCC2)no1	·	·	·	i	0.82	0	84
CCC(=C(c1ccc(OC)cc1)c1ccc(OC)cc1)c1cn(CC(O)CN(CCO)CCO)c2ccccc12 (stereo not given)	·	·	·	i	0.95	0	109
CCCNC(=S)Nc1ccc(Oc2ccccc2)cc1	-1.3	35	185	i	0.93	-4	108
Cc1cccc(NC(=O)CSc2nnc(-c3ccco3)o2)c1C	-1.9	3	113	i	0.92	-3	96
Cc1ccc(C)c(CSC2=NCCN2C(=O)c2cccs2)c1	·	·	·	i	0.89	-1	102
Cc1ccc(C(=O)Nc2cccc(C(F)(F)F)c2)cc1Nc1cnccn1	·	·	·	i	0.83	·	101
O=C(c1ccco1)N1CCN(C(c2ccc(F)cc2)c2nnnn2Cc2cccs2)CC1 (stereo not given)	-3.0	10	112	i	0.87	-3	127
COc1ccccc1NC(=O)c1ccc(S(=O)(=O)N(C)C)cc1	-2.0	·	·	i	0.95	-12	112
Cc1ccc(N(NC(=O)C(O)(c2ccccc2)c2ccccc2)C(=O)CCl)cc1	-2.4	-170	48	i	0.59	9	96
COc1cc2c(cc1NC(=O)CSc1ccc(C)cc1)oc1ccccc12	-1.1	27	53	i	0.83	18	94
Fc1ccc(CSc2ccc(-c3ccco3)nn2)cc1	-1.2	·	·	i	0.96	-10	96
COC(=NC(C)C)NC(C)C	·	·	·	i	0.99	·	98
COc1ccc(N=Cc2cc(Cc3ccccc3Cl)cc([N+](=O)[O-])c2O)cc1OC	·	-50	122	·	·	-3	90
O=C(NNC1=C(C(=O)C(F)(F)F)CCC1)c1cccc(Cl)c1	-2.3	42	106	?	·	-7	96
Cc1c(NC(=S)N/N=C/C=C/c2ccccc2)c(=O)n(-c2ccccc2)n1C	·	·	·	i	0.97	·	104
COc1ccc2c(=O)c(-c3cnn(-c4ccccc4)c3)c(C)oc2c1	-2.9	-235	76	i	1	-6	99
COCCOC(=O)C1=C(C)NC2(O)c3ccccc3C(=O)C12O (stereo not given)	·	·	·	i	0.87	1	99
O=C(COC(=O)C1CC1)NC(=O)NCc1ccccc1	·	·	·	i	0.93	-2	103
C/C(=N\OCC(=O)NC(C)C)c1cccs1	·	·	·	i	1.1	2	99
COC(=O)N1CCN(c2ccc(C)cc2)C(C)C1 (stereo not given)	·	·	·	i	0.98	1	100

Ordered by SMILES length (descending): 7 of the compounds above.
SMILES	GALR2 ag	Insulin prom inh	Insulin prom inh cell count	HSV replic up	HSV replic up primary fold	PKD1 inh	RGS16-Gao HTS
O=C(c1ccco1)N1CCN(C(c2ccc(F)cc2)c2nnnn2Cc2cccs2)CC1 (stereo not given)	-3.0	10	112	i	0.87	-3	127
Cc1ccc(C(=O)Nc2cccc(C(F)(F)F)c2)cc1Nc1cnccn1	·	·	·	i	0.83	·	101
COc1ccccc1NC(=O)c1ccc(S(=O)(=O)N(C)C)cc1	-2.0	·	·	i	0.95	-12	112
O=C(CSc1ncnc2nc[nH]c12)Nc1ccc(Br)cc1Cl	·	·	·	i	0.95	·	96
CN1CCN(C(=O)/C=C\c2ccc(Cl)cc2)CC1	-0.3	-7	75	i	1	1	103
Fc1ccc(CSc2ccc(-c3ccco3)nn2)cc1	-1.2	·	·	i	0.96	-10	96
C/C(=N\OCC(=O)NC(C)C)c1cccs1	·	·	·	i	1.1	2	99

(further entries)
SMILES	GALR2 ag	Insulin prom inh	Insulin prom inh cell count	HSV replic up	HSV replic up primary fold	PKD1 inh	RGS16-Gao HTS
COCCCNC(=O)/C(C#N)=C/c1cc(C)[nH]c1C	·	·	·	i	1.1	-3	102
Clc1ccc(-c2cnc(Oc3ccccc3)nc2)cc1	-3.6	8	135	i	0.99	-7	137
CCCn1c2c(c(O)c(C(=O)Nc3nccs3)c1=O)CCCC2	-1.8	·	·	i	0.95	-7	116
CCOC(=O)N/N=C/c1ccc(Oc2ccccc2)cc1	·	·	·	i	0.95	3	101
O=C(CCCN1C(=O)/C(=C\c2cccs2)SC1=S)NNC(=O)c1cccnc1	·	48	80	i	0.93	-5	112
C#Cc1ccc([C@H]2C=C(C(=O)N3CCN(Cc4ccccc4)CC3)O[C@@H](OCc3ccc(CO)cc3)C2)cc1	·	·	·	i	0.99	13	92
CC(C)CNC(=O)NC(=O)COC(=O)c1ccccc1Sc1ccc(C(F)(F)F)cc1[N+](=O)[O-]	-1.3	·	·	i	1.1	13	95
O=C(c1ccccc1)c1ccc(OC(=O)N2CCOCC2)cc1	-0.7	-6	83	i	0.92	-7	110
CC(/C=N/n1c(-c2cc(C)[nH]n2)n[nH]c1=S)=C\c1ccccc1	0.8	·	·	i	1.1	7	95
Cc1ccc(S(=O)(=O)N2CCCC2C(=O)Nn2cnnc2)cc1 (stereo not given)	-1.8	68	97	i	0.92	-6	101
Cc1cc(C)n(CCNC(=O)CCc2nnc(CCc3ccccc3)o2)n1	·	0	84	i	0.86	14	102
Cc1ccc(-c2cc(=O)c3cc(Cl)ccc3[nH]2)cc1	·	·	·	·	·	10	100
O=C(Nc1nc(-c2ccc3ccccc3c2)cs1)c1ccc(N2C(=O)CCC2=O)cc1	4.8	30	103	·	·	-6	108
Cn1ccnc1SCC(=O)NC1CCCCC1	-2.4	0	108	i	0.97	-4	105
Cc1onc(-c2c(Cl)cccc2Cl)c1C(=O)NCCc1ccc(S(N)(=O)=O)cc1	-0.4	24	97	i	0.93	-1	98
COc1ccccc1CC(=O)Nc1cccc(C(=O)NN2C(=O)c3ccccc3C2=O)c1	-1.8	·	·	i	1.1	-8	101
COC(=O)C1(C(=O)OC)NOC2C(=O)N(c3ccc(Cl)cc3Cl)C(=O)C21 (stereo not given)	-2.8	-3	99	i	1.1	2	89
CCOC(=O)CN1C(=O)N(CC)C(C)=C(C(=O)OC)[C@@H]1c1ccccc1	·	·	·	i	0.99	·	104
